Screens (PubChem)
HCMV UL50-53 inh: disrupts HCMV UL50-UL53 complex binding | AID 1918969 | 190,000 compounds, 0.15% hits | inhibition, % (concentration not given with the values) | HTRF UL50-UL53 interaction, normalized percent inhibition;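 active = both replicates at 50% or more, plus weaker picks with an unusually low signal ratio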;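 note: stock transfer was 100 nL into about 20 µL; 0% = negative control wells and 100% = wells with untagged competitor protein; inactives centre near -12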
Sa growth 42C: blocks Staphylococcus aureus growth | relative growth, % (test concentration not listed) | 170,000 compounds, 0.53% hits | S. aureus RN4220 growth, OD600, 20 h, 42 °C; active compounds read low;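 active = growth at 42 °C up to 50% and 20 or more points under that at 30 °C, or under 10% at both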;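 note: 300 nL library stock went into each well; scaled to the means of positive and negative controls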
GIV-Gai inh: blocks GIV peptide binding to rat Galpha-i3. P08753. Galpha-i3/FITC-GIV peptide fluorescence polarization, 90 min; active compounds read low; scaled: aluminum fluoride 0%, vehicle 100%. percent of control (FP), % (test concentration not listed). 210,000 compounds, 0.42% hits. AID 1224905;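 active = replicate mean at 85% of control or lower, very high polarization wells dropped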;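 note: lower values mean more displacement of the GIV peptide from Galpha-i3; wells of about 15 µL received 100 nL stock; the first replicate is given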
Target sequence (P08753 whole entry, looked up): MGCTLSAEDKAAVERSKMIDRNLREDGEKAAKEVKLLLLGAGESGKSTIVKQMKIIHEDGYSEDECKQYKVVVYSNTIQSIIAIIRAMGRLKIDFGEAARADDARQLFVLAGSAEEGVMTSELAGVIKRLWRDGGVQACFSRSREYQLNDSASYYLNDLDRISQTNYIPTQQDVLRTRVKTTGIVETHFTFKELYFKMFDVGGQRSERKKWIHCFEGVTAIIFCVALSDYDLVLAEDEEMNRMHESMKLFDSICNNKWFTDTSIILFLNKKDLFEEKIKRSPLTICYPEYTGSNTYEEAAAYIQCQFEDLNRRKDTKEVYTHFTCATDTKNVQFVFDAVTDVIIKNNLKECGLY
Sa growth 42C second temp: further read-out of Sa growth 42C, marked with its call; relative growth, %; measured here: growth at 30 °C;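 optical density after 20 h as mean of two plates; 100% = untreated growth and lower means inhibition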
* hit, by the source's call; . = no result given; & = joins results of further samples.

SMILES | HCMV UL50-53 inh | Sa growth 42C | Sa growth 42C second temp | GIV-Gai inh
Cc1ccc2c(c1)N(C(=O)CCC(=O)N1CCC(C)CC1)CC(C)O2 (stereo unspecified) | -15 | . | . | 97
O=C(Nc1nc2ccc(F)cc2s1)c1nc(S(=O)(=O)Cc2ccccc2)ncc1Cl | -26 | 94 | 83 | 100
Cc1ccc2c(=O)cc(C(=O)Nc3sc4c(c3C(=O)NCc3ccco3)CCC4)oc2c1C | -20 | 113 | 88 | 98
O=C(NCCc1ccccc1)c1ccccn1 | -34 | 112 | 92 | .
Cc1cc(=O)oc2c1c(C)nn2CCO | 1 | 116 | 93 | 108
CCN(Cc1nc2ccccc2c(=O)[nH]1)Cc1nc2cc(C(F)(F)F)ccc2c(=O)[nH]1 | -7 | 113 | 100 | .
CCN(CC(=O)NC1CCCc2ccccc21)Cc1nc2ccccc2c(=O)[nH]1 (stereo unspecified) | 12 | 114 | 97 | .
CCOc1ccccc1NC(=O)c1c(NC(=O)Cc2ccc(OC)cc2)sc2c1CCC2 | -18 | 92 | 88 | 106
CCCCn1ccnc1C(=O)c1cccc(S(=O)(=O)N2c3ccccc3CC2C)c1 (stereo unspecified) | -7 | 92 | 97 | .
CCN(C(=O)c1cn(CC)c(=O)c2cc(OC)c(OC)cc12)c1ccccc1F | -7 | 95 | 97 | 107
CC(C)(C)C1=Nn2c(nnc2-c2ccccc2)SC1 | . | 92 | 78 | 103
Cc1cccc(NC(=O)N2CCN(c3cc(=O)n4nc(-c5cccc(C)c5)sc4n3)CC2)c1 | 19 | . | . | 87
C=CCNC(=S)NN=C1CCCCCC1 | -29 | 115 | 87 | .
COC(=O)C1CCC2C3CC=C4CC(O)CCC4(C)C3CCC12C (stereo unspecified) | -8 | 101 | 93 | .
CCOC(=O)c1sc(C)c2c1NC(c1ccc(N(C)C)cc1)NC2=O (stereo unspecified) | . | 99 | 83 | 111
CC(C)CCSc1nc2c(cnn2CCO)c(=O)[nH]1 | -19 | . | . | 105
COc1ccc(CNC(=O)c2ccc(N3CCCC3)c(NC(=O)NCc3ccc(C)cc3)c2)cc1 | . | 89 | 91 | 101
C=CCn1c(=S)n(CC=C)c2ccccc21 | . | 100 | 83 | 103
COC(=O)c1cc(-c2ccccc2)on1 | 2 | 103 | 88 | 98
Nc1ccccc1C(=O)Nc1cc(C(=O)O)cc(C(=O)O)c1 | -7 | 105 | 87 | .
NS(=O)(=O)c1ccc(NC(=O)CN2C(=O)S/C(=C\C(=O)Nc3ccc(F)cc3)C2=O)cc1 | -17 | 97 | 80 | 104
O=C(Nc1cccc(C(F)(F)F)c1)c1cccc(C(=O)Nc2cccc(C(F)(F)F)c2)c1 | -49 | 83 | 84 | 108
O=C(Nc1ccc(N2CCOCC2)cc1Cl)C1CCN(C(=O)OCc2ccccc2)CC1 | -24 | 104 | 84 | 104
O=S(=O)(Nc1cc(C(F)(F)F)ccc1N1CCCC1)c1ccc2c(c1)OCCCO2 | -10 | 117 | 107 | .
O=C(Oc1ccc(OC(=O)c2ccccc2)cc1)c1ccccc1 | . | 116 | 90 | 98
COc1cc2c(C(=O)N3CCCCC3)c(C)n(-c3ccccc3)c2cc1Br | 11 | . | . | 92
O=C(Cc1c[nH]c2ccccc12)NCC(c1ccco1)N1CCCCC1 (stereo unspecified) | -8 | 97 | 102 | .
Cc1ccc(S(=O)(=O)N2CCOCC2)cc1C(=O)NCC1CCCCC1 | -15 | 91 | 88 | .
CCOC(=O)C1=C(C)NC(C)=C(C(=O)OCC)C1C(=O)OCC(=O)c1cc(C)n(Cc2cccs2)c1C | -9 | 106 | 97 | .
CCOc1ccc(NC(=O)C2CCN(S(=O)(=O)c3c(C)noc3/C=C/c3ccco3)CC2)cc1 | -31 | 106 | 82 | 105
Cc1ccc(COc2ccc(/C=C3/C(=N)N4C=CSC4=NC3=O)cc2Br)cc1 | . | 115 | 89 | 106
O=c1cc(-c2ccc(F)cc2)oc2ccccc12 | -14 | 86 | 62 | 97
O=C(OC(C(=O)NCc1cccs1)c1ccccc1Cl)c1ccco1 (stereo unspecified) | 13 | 115 | 66 | 103
Cc1ccccc1C(=O)Nc1ccc2c(c1)oc(=O)n2C | -1 | . | . | 106
Cc1cc2nc(NC(=O)Nc3cccc(F)c3)sc2cc1C | -8 | . | . | 102
O=C(CN1CCN(Cc2ccccc2)CC1)NCCN1C(=O)S/C(=C\c2ccccc2Cl)C1=O | -33 | 107 | 82 | .
COc1ccccc1CNC(=O)C1CCN(S(=O)(=O)Cc2ccccc2)CC1 | 0 | 105 | 87 | 102
CSc1ccc2nnc(CCNC(=O)c3ccccc3)n2n1 | -17 | 89 | 90 | 106
Cc1c(-c2nnc(C(=O)NC3CCCc4ccccc43)o2)oc2c(C)cccc12 (stereo unspecified) | 4 | . | . | 109
CN1c2ccccc2C(=O)/C(=C\Nc2ccc(F)cc2F)S1(=O)=O | 4 | 114 | 92 | 105
COc1ccc(CNC(=O)C2=Cc3sc(C)c(C)c3CS2)cc1 | . | 72 | 60 | 98
CC1CN(C(=O)Cn2cc(SCC(N)=O)c3ccccc32)CC(C)O1 (stereo unspecified) | 6 | 102 | 97 | 101
Cc1ccc2c(c1)c(=O)c1ccccc1n2CCCC(=O)Nc1ccc(F)cc1F | -38 | 101 | 91 | 107
COc1cc(NC(=O)COc2cc(C)c3c(C)nn(-c4cccc(Cl)c4C)c3n2)cc(OC)c1 | -40 | . | . | 99
O=C(COc1ccccc1F)OCCN1CCCC1 | -1 | 137 | 98 | .
Cc1ccc([N+](=O)[O-])cc1NC(=O)CN(c1ccccc1)S(=O)(=O)N(C)C | -79 | 87 | 89 | 101
CC1(C)CC2(CCO1)Cc1ccccc1C2=O (stereo unspecified) | -19 | 96 | 88 | 100
COc1ccc(S(=O)(=O)N2CCN(Cc3ccc4c(c3)OCO4)CC2)cc1OC | -5 | 102 | 89 | 103
CCOC(=O)c1noc2nc(C)n(CC(=O)Nc3ccc(Br)cc3C)c(=O)c12 | . | 100 | 99 | 102
Ic1c(-c2ccccc2)noc1-c1ccccc1 | -9 | 120 | 76 | 102
CSc1nn(-c2ccccc2)cc1C(=O)Sc1cccs1 | 11 | 87 | 82 | 103
CCOc1ccc(S(=O)(=O)NC(C)C)cc1-c1nc(C)no1 | 5 | . | . | 107
CCOC(=O)c1c(C)c(C(=O)NCc2ccco2)c(C)n1C | -35 | 104 | 90 | 105
COc1ccccc1CNC(=O)CN(c1ccccc1)C(C)C | -14 | 118 | 93 | .
Cc1ccc(C)c(N2CCN(C(=O)C3CCCN(S(=O)(=O)c4cccc5nsnc45)C3)CC2)c1 (stereo unspecified) | -24 | 89 | 86 | 101
CCC(=O)Nc1cc(C(=O)O)ccc1C | -8 | 110 | 97 | 102
NC(=O)c1ccccc1N=c1cc(-c2ccccc2)oc2ccc(Cl)cc12 | . | 109 | 89 | 98
CCc1ccc(NC(=O)Cn2nc(C(F)(F)F)c3c2CCC3)cc1 | -38 | 91 | 80 | 102
O=C(c1nc(-c2ccc(Cl)cc2)n2c1CCCCC2)N1CCCC1 | -9 | 95 | 90 | 101
CC(C)CN(CCNC(=O)CN1C(=O)CSc2ccc(S(=O)(=O)N3CCOCC3)cc21)CC(C)C | . | 101 | 87 | 104

Quoted at random: 7 compounds from above
SMILES | HCMV UL50-53 inh | Sa growth 42C | Sa growth 42C second temp | GIV-Gai inh
CCOC(=O)c1c(C)c(C(=O)NCc2ccco2)c(C)n1C | -35 | 104 | 90 | 105
Cc1ccc([N+](=O)[O-])cc1NC(=O)CN(c1ccccc1)S(=O)(=O)N(C)C | -79 | 87 | 89 | 101
CCOC(=O)c1noc2nc(C)n(CC(=O)Nc3ccc(Br)cc3C)c(=O)c12 | . | 100 | 99 | 102
CC(C)CN(CCNC(=O)CN1C(=O)CSc2ccc(S(=O)(=O)N3CCOCC3)cc21)CC(C)C | . | 101 | 87 | 104
CCc1ccc(NC(=O)Cn2nc(C(F)(F)F)c3c2CCC3)cc1 | -38 | 91 | 80 | 102
NC(=O)c1ccccc1N=c1cc(-c2ccccc2)oc2ccc(Cl)cc12 | . | 109 | 89 | 98
Cc1ccc(C)c(N2CCN(C(=O)C3CCCN(S(=O)(=O)c4cccc5nsnc45)C3)CC2)c1 (stereo unspecified) | -24 | 89 | 86 | 101

Further compounds:
SMILES | HCMV UL50-53 inh | Sa growth 42C | Sa growth 42C second temp | GIV-Gai inh
CC(N)=NCCCC[C@@H](N)C(=O)O | -21 | . | . | 97
Cc1nc2nc3c(c(Nc4ccc(Br)cc4)n2n1)CCCC3 | -24 | . | . | 107
CC1(C)N=C(SCc2ccccc2Cl)c2ccccc2N1 | . | 96 | 96 | 105
O=C(NCc1ccccc1)c1nc(S(=O)(=O)Cc2ccccc2)ncc1Cl | -2 | 12 | -1 | 96
O=C(Cn1cnc2c(nnn2Cc2ccccc2F)c1=O)Nc1ccc2c(c1)OCCO2 | 14 | 90 | 100 | 107
Cn1c(=O)oc2cc(S(=O)(=O)N3CCC(C(=O)Nc4ccc(F)c(Cl)c4)CC3)ccc21 | -9 | 112 | 90 | 107
CCN(CC)S(=O)(=O)c1ccc2c(c1)N(CC(=O)Nc1cccc(Cl)c1C)C(=O)CCS2 | 10 | . | . | 100
CCN(CC)CCNc1nc2ccccc2n1C | -1 | 95 | 97 | 102
CN1C(=O)CCSc2ccccc21 | -35&7 | 85 | 91 | 102&99
O=C(Nc1cccc(C(F)(F)F)c1)N1CCOC12CCCCC2 | -38 | 83 | 89 | 104
CC1=C(C#N)C(c2ccccc2)C(C#N)=C(C)N1 | -28 | 96 | 90 | 106
CCNC(=O)c1cc2c(C)nn(-c3ccc(Cl)cc3)c2s1 | -9 | 83 | 69 | .
COc1ccccc1CCNC(=O)Cc1c(C)c2c(O)cc(C)cc2oc1=O | -24 | 117 | 89 | 101
Cc1cc(CNCC(c2ccco2)N2CCCCC2)c(C)n1-c1ccnn1C(C)C (stereo unspecified) | -14 | 96 | 85 | .
CCN(CC)S(=O)(=O)c1cc(C(=O)OC(C)C(=O)NC2CC2)ccc1C (stereo unspecified) | -17 | 91 | 88 | .
CSc1cccc(NC(=O)C(c2ccccc2)N2Cc3ccccc3C2=O)c1 (stereo unspecified) | . | 101 | 86 | 106
COc1ccccc1N1CCN(C2CCCC(C)C2)CC1 (stereo unspecified) | -15 | 106 | 112 | 97
COc1ccc(C2C(C(=O)Nc3cccnc3)=C(C)Nc3nc(-c4ccccc4)nn32)cc1OC (stereo unspecified) | -24 | 102 | 87 | 104
NNC(=O)CCCCn1c(=S)[nH]c2ccsc2c1=O | 4 | 87 | 91 | 104
COc1ccc(CCc2nnc3sc(-c4ccc(Br)cc4)nn23)cc1OC | 3 | . | . | 103
CCc1ccc(-n2nc(C)c3c(C(=O)N4CCN(c5ccccc5)CC4)cc(C)nc32)cc1 | . | 97 | 84 | 107
O=C(NCC1CC1)NC(=O)c1c(Cl)cccc1Cl | -24 | 84 | 75 | 106
Cc1ccccc1NC(=O)N1CCC(c2nc(-c3ccccc3)no2)CC1 | -31 | . | . | 99
CCCNC(=O)C1CCN(S(=O)(=O)c2ccc3c(c2)CCCN3C(C)=O)CC1 | . | 130 | 102 | 108
O=C(CS(=O)(=O)c1ccccc1)Nc1cccc(C(F)(F)F)c1 | 23 | 99 | 107 | 108
O=C(C1Cc2ccccc2CN1S(=O)(=O)c1ccc(F)cc1)N1CCOCC1 (stereo unspecified) | . | 100 | 86 | 102
O=C(/C=C/c1cccs1)Oc1ccc2c(c1)OCO2 | -9 | 103 | 98 | .
CCC(NCc1cccnc1)c1ccc(OC)c(OC)c1 (stereo unspecified) | -12 | 99 | 85 | 98
CCOc1ccc(C(=O)c2oc3ccccc3c2NC(=O)Cc2coc3ccc(CC)cc23)cc1 | -8 | 125 | 92 | 108
CC(=O)N1CCc2c(sc3c2c(=O)n(-c2cc(Cl)ccc2C)c(=O)n3Cc2ccccc2F)C1 | 15 | 85 | 50 | 107

3 entries from above, ordered by the value under Sa growth 42C second temp, highest first:
Structure,Sa growth 42C second temp
CCOc1ccc(C(=O)c2oc3ccccc3c2NC(=O)Cc2coc3ccc(CC)cc23)cc1,92
CCC(NCc1cccnc1)c1ccc(OC)c(OC)c1 (stereo unspecified),85
CCc1ccc(-n2nc(C)c3c(C(=O)N4CCN(c5ccccc5)CC4)cc(C)nc32)cc1,84

Continuation.
SMILES | HCMV UL50-53 inh | Sa growth 42C | Sa growth 42C second temp | GIV-Gai inh
COc1cccc(Cn2c(C)c(C3=CCN(S(=O)(=O)c4cccc5nsnc45)CC3)c3ccccc32)c1 | -46 | . | . | 114
COc1ccc(-n2nnnc2SCCCC(=O)c2ccccc2)cc1 | -11 | 87 | 86 | .
Cc1ccc(C(=O)N(CC(C)C)C2CCS(=O)(=O)C2)cc1C (stereo unspecified) | -8 | 99 | 98 | 99
Cc1oc(-c2ccccc2F)nc1CS(=O)(=O)CC(=O)N1CCN(c2ccc(Cl)cc2)CC1 | -5 | 83 | 42 | 100
O=c1c2ccccc2nnn1CSc1nnc(-c2ccco2)o1 | -22 | 101 | 86 | .
O=C(Cc1cn2ccsc2n1)Nc1ccc(Cl)cc1 | -22 | 108 | 96 | .
CCN1CCCC1CNC(=O)C1(O)c2cc(Br)ccc2NC(=O)N1c1ccc(Cl)cc1 (stereo unspecified) | -20 | 79 | 86 | 102
CCN1CCC(=NO)CC1 | -8 | 87 | 94 | 99
